LANA-H2A inh – blockers of LANA interaction with H2A/H2B – biochemical, FP readout, HTS, primary screen | 320,000 tested, 0.6% active | Protein LANA1 (Human herpesvirus 8 type P (isolate GK18)), Q9QR71 | cell-free LANA-H2A/H2B peptide, fluorescence polarization | inhibition, % (concentration not given with the values); in the data active = inhibition mostly above about 10%, no sharp cut-off; inactive = mostly below about 6.7%;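 note: stock transfer was 7.5 nL into about 10 µL; 0% = median of vehicle wells and 100% = median of positive control wells; one replicate is shown; the record names a cut of 25% in any replicate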
RanGTP-Impb inh – inhibitors of RanGTP-importin-beta interaction, primary screen, biochemical, FRET, CFP-Ran, YFP-importin-beta, homogeneous; AID 2216, 2009; inhibition, % (test concentration not listed); Ran GTPase (GTP-bound) - importin-beta complex; cell-free CFP-Ran/YFP-importin-beta FRET ratio; 300,000 tested, 1.1% active;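 active = most replicates above 15%; inconclusive = exactly half above 15%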;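 note: 0% = DMSO wells and 100% = Ran loaded with GDP instead of GTP; wells of about 40 µL received 100 nL stock; the first replicate is given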
T cruzi inh – inhibitors of intracellular T. cruzi growth, primary screen, luminescence, NIH3T3 host cells | AID 1885, 2009 | 300,000 tested, 1.4% active | T. cruzi beta-gal in NIH3T3, 90 h | inhibition, % (no concentration beside the values);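 active = mean inhibition across valid replicates above about 55%, limit read from the data; inconclusive = mean below that limit but half or more replicates reach it; inactive = mean below it, under half of replicates reach it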;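 note: signal also drops with host cell toxicity which is not excluded here; 0% = plate median of DMSO wells and 100% = zero luminescence signal; higher percent means less beta-gal luminescence so fewer parasites; stock transfer was 50 nL into about 50 µL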
Calb FLC – C. albicans growth inhibition with fluconazole, primary screen, CaCi-2 strain, Alamar Blue fluorescence | growth inhibition, % (test concentration not listed) | 300,000 tested, 0.57% active | C. albicans CaCi-2 (fluconazole-resistant clinical isolate) + fluconazole, 48 h;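 active = most replicates above 75%; inconclusive = exactly half above 75%; inactive = most below 75%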;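 note: all wells also contain fluconazole at 8 µg/ml as a sub-toxic cotreatment; 0% = median of DMSO wells and 100% = median of geldanamycin control wells; wells of about 8 µL received 7.5 nL stock; the first replicate is given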
Beta apoptosis – inhibitors of cytokine-induced beta cell apoptosis, primary screen, luminescence. INS-1E cytokine-induced death, ATP luminescence, 48 h; percent of positive-control rescue, neutral wells zero. protection from apoptosis, % (no concentration beside the values). 300,000 tested, 0.8% active;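 active = all replicates at 75% or more, or half of them and the mean; inconclusive = half reach 75% but not the mean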;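 note: 0% = cytokine-treated negative control wells and 100% = positive control rescue; higher means more ATP so stronger rescue from cytokine killing; wells of about 40 µL received 100 nL stock; the first replicate is given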
Bfl-1 A1 inh – caspase 3/7 activation in MEF A1-2A-BIM cells, primary screen, A1 inhibitor project, cell-based, luminescence, HTS; Caspase-Glo 3/7 luminescence, 3 h; percent of clofoctol response, vehicle zero; caspase activation, % (no concentration beside the values); 330,000 tested, 0.066% active;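 active = over half of replicate activation scores above 10%, or exactly half above 10 with the replicate mean above 10; inconclusive = replicate mean below 10 yet half the replicates above 10; inactive = over half of replicates below 10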;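 note: wells of about 30 µL received 50 nL stock; many hits fall short of the cut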
UCH37 inh – inhibitors of human UCH37 deubiquitinase, primary screen, biochemical, Ub-AMC cleavage, fluorescence; Ubiquitin carboxyl-terminal hydrolase isozyme L5 (Homo sapiens), Q9Y5K5; purified proteasome/UCH37; 330,000 tested, 0.33% active; inhibition, % (test concentration not listed);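 active = mean of two replicates above 20%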;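 note: 0% = compound-free wells with enzyme and 100% = wells lacking proteasome; stock transfer was 100 nL into about 20 µL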
Target sequence (Q9Y5K5 whole entry, looked up): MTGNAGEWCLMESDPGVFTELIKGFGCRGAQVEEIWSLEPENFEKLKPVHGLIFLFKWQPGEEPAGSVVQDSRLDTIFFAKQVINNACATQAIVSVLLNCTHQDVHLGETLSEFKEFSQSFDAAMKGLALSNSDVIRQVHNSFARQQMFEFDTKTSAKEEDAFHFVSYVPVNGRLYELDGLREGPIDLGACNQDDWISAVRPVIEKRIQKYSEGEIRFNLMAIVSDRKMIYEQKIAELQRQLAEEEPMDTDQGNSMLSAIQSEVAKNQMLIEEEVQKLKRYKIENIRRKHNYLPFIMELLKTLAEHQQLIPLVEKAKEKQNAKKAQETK
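system = Proteasome-associated human UCH37 deubiquitinase | amount = 0.15 nM proteasome as dispensed | medium = pH 7.4 Tris-HCl (50 mM) with ovalbumin, ATP-MgCl2, DTT | incubation = 30 min preincubation with enzyme, 25 min cleavage at room temperature | detection = AMC fluorescence 355/460 nm | read-out basis = percent inhibition | controls = no-proteasome and no-compound wells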
B2AR ag – beta2AR agonists driving receptor internalization, primary screen, cell-based, FAP fluorogen, flow cytometry; Beta-2 adrenergic receptor (Homo sapiens), P07550; Am2.2-beta2AR cells; reference of the scale not given here; response, % (concentration not given with the values); 340,000 tested, 0.43% active; AID 504454, 2011;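 active = response above a set limit, near 3 SD of response in nonfluorescent compounds, cut at about 42% in these data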;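 note: stock transfer was 100 nL into about 11 µL; a reference agonist was the positive control; negative values mostly stem from fluorescent compounds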
Target sequence (P07550 whole entry, looked up): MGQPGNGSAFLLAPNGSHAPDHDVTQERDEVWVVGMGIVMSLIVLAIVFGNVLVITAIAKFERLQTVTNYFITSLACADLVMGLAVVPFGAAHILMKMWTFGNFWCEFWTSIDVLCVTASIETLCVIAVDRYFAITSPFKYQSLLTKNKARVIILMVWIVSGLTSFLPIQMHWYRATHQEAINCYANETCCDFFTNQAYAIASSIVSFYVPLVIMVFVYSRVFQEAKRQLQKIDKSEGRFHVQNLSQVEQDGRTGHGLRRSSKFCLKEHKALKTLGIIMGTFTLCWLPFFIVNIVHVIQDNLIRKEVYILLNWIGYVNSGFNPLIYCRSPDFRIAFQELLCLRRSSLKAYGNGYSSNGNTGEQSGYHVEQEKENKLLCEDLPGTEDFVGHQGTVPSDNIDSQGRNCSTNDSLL
Numbers without * were called inactive; ? = inconclusive; nt = not tested or not shown.

mol,LANA-H2A inh,RanGTP-Impb inh,T cruzi inh,Calb FLC,Beta apoptosis,Bfl-1 A1 inh,UCH37 inh,B2AR ag
Cc1ccc(NCc2nnc(SCC(=O)N3CCCCC3)n2CC2CCCO2)c(C)c1 (configuration not stated),-2.3,0.1,-8,-4,4,-0.2,0.8,-8
O=C(c1cc(COc2cccc(C(F)(F)F)c2)on1)N1CCSCC1,-4.4,5.7,-3,0,4,0.2,-0.5,-8
Cc1ccc(C2Oc3ccccc3C3=C2C(c2cccs2)n2ncnc2N3)cc1 (configuration not stated),-0.8,-0.2,36,-6,21,0.6,-5.4,-8
Cc1cc(C(=O)Nc2cccc(S(=O)(=O)N3CCCCC3)c2)c2ccccc2n1,-0.9,-1.7,20,13,-1,-1.2,4.9,0
CC1CCc2sc(C(=O)OCC(=O)NC(N)=O)cc2C1 (configuration not stated),-6.9,-0.8,-18,-2,3,-0.7,0.4,0
O=C(CC1C(=O)NCCN1Cc1cccc(F)c1F)NC1CCCCCC1 (configuration not stated),0.9,2.8,-1,-31,-3,-0.2,-1.5,3
COc1ccccc1NS(=O)(=O)c1ccc2[nH]c(=S)oc2c1,-2.6,nt,nt,nt,0,1.0,1.2,5
COc1ccc(OCc2cc(C(=O)NC(C)c3csc(C)n3)no2)c(Cl)c1 (configuration not stated),-2.8,1.9,5,8,-3,-0.3,-2.3,-5
c1cncc(-c2nc(NCCCn3ccnc3)c3ccccc3n2)c1,13,-11,17,36,0,2.6,4.6,0
CCCNC(=O)C(Cc1ccccc1)NC(=O)c1ccccn1 (configuration not stated),-0.2,nt,nt,nt,-1,-0.2,0.5,7
O=C(NCc1ccccn1)c1ccc([N+](=O)[O-])cc1,-2.0,2.0,-13,-7,3,0.8,3.5,-8
CCN(CC(=O)Nc1ccc2c(c1)OCO2)S(=O)(=O)c1ccccc1,-2.8,?,0,3,-1,-0.2,3.1,5
Cc1cc(OCC(=O)Nc2ccc(S(=O)(=O)NC3=NCCCCC3)cc2)c(C(C)C)cc1Cl,-4.0,-6.0,14,4,-2,0.8,3.8,11
COc1cccc(OCC(=O)NNC(=O)C(=O)Nc2ccc(OC)cc2OC)c1,5.0,1.0,2,20,-10,-0.2,3.9,5
CCOC(=O)C(C)Oc1nc(Oc2ccccc2)nc(N(C)C)n1 (configuration not stated),-4.0,4.9,17,nt,2,-0.1,-0.8,-5
Cc1[nH]nc(N)c1-c1ccccc1,0.9,3.5,-3,0,-3,-0.7,0.5,0
O=C(CSc1nccc(=O)[nH]1)N1CCc2ccccc2C1,1.0,2.1,0,8,0,0.9,-1.6,2
CN(C)N1C(N)=C(C#N)C(c2cccc(Cl)c2)C2=C1CCCC2=O (configuration not stated),-3.5,-2.6,28,-1,2,-0.4,3.8,8
COC(CNC(=O)CCc1c(C)nc2c(c(C)nn2-c2ccc(C)cc2)c1C)OC,1.4,-4.6,-6,-1,-6,0.6,-60,-2
CC(C)(C)c1ccc(O)c(N=Cc2cc(Br)ccc2O)c1,2.3,-0.1,-2,-20,-5,-0.3,1.1,8

Remaining list, next part:
mol,LANA-H2A inh,RanGTP-Impb inh,T cruzi inh,Calb FLC,Beta apoptosis,Bfl-1 A1 inh,UCH37 inh,B2AR ag
CSc1nc2cc(S(=O)(=O)N3CCCCC3)ccc2s1,nt,-1.0,3,0,nt,nt,1.7,-9
CCCC(c1nnnn1CCc1ccccc1)N1CCN(C(=O)c2ccco2)CC1 (configuration not stated),6.9,-3.9,15,4,8,2.1,3.6,1
O=[N+]([O-])c1ccc(N2N=C(c3ccccc3)CC2c2ccccc2O)cc1 (configuration not stated),-2.4,-24,63*,10,25,-0.4,nt,-137
CC1(C)CC(=O)C(CC2=C(O)CC(C)(C)CC2=O)=C(O)C1,0.6,2.3,-3,-19,-1,0.0,5.6,10
COc1ccc(CN(C)C(=O)c2ccccc2OCc2c(C)noc2C)cc1OC,-1.4,nt,nt,nt,-3,2.2,-1.7,-4
CC[C@@H](C)[C@H](CN[C@H](CNC)[C@@H](C)O)NCCc1ccc(OC)cc1,3.9,1.1,-8,-1,6,1.2,1.2,0
COC(=O)C1=C(C)NC(=S)NC1c1ccc(-c2cc(Cl)ccc2Cl)o1 (configuration not stated),-4.6,-0.7,31,4,10,0.3,3.4,1
COc1nn(-c2nc(-c3ccccc3)cc(C(F)(F)F)n2)cc1[N+](=O)[O-],0.6,3.6,-4,0,-2,0.5,-1.0,-5
O=C(COC(=O)Cc1cccs1)NCc1ccc(F)cc1,-2.3,5.7,-6,1,-4,-0.6,0.2,0
CCOC(=O)Cc1csc(NC(=O)c2c(C)noc2C)n1,1.3,0.4,-2,8,-3,-0.1,2.0,12
O=C(CN1CCN(c2ccc(O)cc2)CC1)Nc1ccc(SC(F)F)cc1,4.1,2.8,-16,3,6,-0.4,3.3,0
C=CCOC(=O)C1=C(C)NC(=S)C(C#N)(CC=C)C1c1ccccc1Cl (configuration not stated),-0.3,0.9,22,30,0,0.0,9.3,0
CCc1n[nH]c(=S)n1/N=C/c1ccc(N(C)c2ccccc2)cc1,-0.3,-4.1,-6,-20,1,0.2,nt,1
Cn1c(NC(=O)/C=C/c2ccc(Cl)c(Cl)c2)cc(=O)n(C)c1=O,4.5,-3.4,9,2,2,1.2,nt,-14
O=C(NCCN=C1NS(=O)(=O)c2ccccc21)c1ccc2nccnc2c1,1.1,-0.8,-20,2,-8,0.5,1.2,-1
CC(C)C(NC(=O)c1ccc([N+](=O)[O-])cc1Cl)C(=O)N1CCCC1 (configuration not stated),-2.9,4.7,2,0,-6,0.7,1.6,0
CCOC(=O)N1CCN(c2c(-c3ccc(C)c(C)c3)c(=O)c2=O)CC1,0.6,0.3,8,11,6,0.0,6.9,-10
CCOC(=O)C(C#N)C(c1cccnc1)c1c(C)[nH][nH]c1=O (configuration not stated),5.0,2.1,-6,-3,1,1.6,5.2,2
CCN(CC(=O)Nc1ccc(OC)cc1)C(=O)c1cc(-c2cccs2)nn1-c1ccccc1,-0.7,-0.2,3,8,4,0.4,6.2,14
COc1ccc(CNC(=O)C(OC(=O)c2ccco2)c2ccc(F)cc2)cc1 (configuration not stated),-1.4,-4.6,6,-5,-1,-0.6,nt,7

More compounds:
mol,LANA-H2A inh,RanGTP-Impb inh,T cruzi inh,Calb FLC,Beta apoptosis,Bfl-1 A1 inh,UCH37 inh,B2AR ag
Cc1ccc(-n2c(=O)c3cc4c(=O)n(-c5ccc(C)c(C)c5)c(=O)c4c(C(=O)c4ccc(C(=O)O)cc4)c3c2=O)cc1C,1.4,2.2,-12,4,-8,-0.3,7.5,8
CC(=O)N1c2ccc(S(=O)(=O)N3CCCC3C(=O)Nc3cccc(F)c3)cc2CC1C (configuration not stated),9.7,1.3,4,6,-1,-0.6,3.1,-4
Cn1c(C(C)(O)C(O)c2ccccc2)nc2ccccc21 (configuration not stated),-4.4,-0.3,-12,-6,-4,0.4,nt,nt
CC1(C)CCC[C@]2(C)C(CS(=O)c3ccccc3)=C(C=O)CC[C@@H]12 (some centres not stated),0.0,0.7,6,-9,-3,0.7,4.3,2
CCOC(=O)N1CCN(C(=O)c2ccc(CN(c3ccccc3)S(C)(=O)=O)cc2)CC1,-0.7,0.2,-2,2,0,-0.2,4.3,2
O=C(Oc1cccc(C(=S)N2CCOCC2)c1)c1cccc(Cl)c1,3.1,-2.7,-4,16,nt,0.0,0.9,-5
CCCC(=O)NC(=S)Nc1cccc(C(C)=O)c1,1.6,2.0,-11,3,-5,0.5,-1.6,-11
COc1c(/C=N/NS(=O)(=O)c2ccc(C)cc2)c(CCN(C)C(C)=O)cc2c1OCO2,1.7,0.9,-2,2,-4,0.0,nt,-1
Cc1cc(C(=O)CSc2nnnn2C)c(C)n1-c1ccc2c(c1)OCCO2,0.2,?,-9,-26,2,-1.4,4.8,2
Cc1cccn2c(=O)c(/C=N/O)c(Nc3ccccc3F)nc12,-2.6,0.0,-13,-6,nt,0.3,nt,10
CCCS(=O)(=O)c1ncc(Cl)c(C(=O)Nc2ccc(S(=O)(=O)Nc3ncccn3)cc2)n1,1.0,-1.0,-3,-26,1,0.6,3.8,-4
Cc1cc(C(F)F)nn1CC(=O)NCc1ccco1,-3.2,0.6,-26,-3,-2,0.5,5.0,7
CCCC(=O)Nc1cc(OCC)c(NC(=O)NC2CCCCC2)cc1OCC,-2.9,4.4,0,10,-7,0.3,4.8,7
O=C(COC(=O)c1cccc(Cl)c1)Nc1cccc(S(=O)(=O)NC2=NCCC2)c1,0.0,nt,nt,nt,-2,?,2.2,3
COc1cc(C(=O)C(=O)c2cc(OC)c(O)c(OC)c2)cc(OC)c1O,0.7,?,2,26,-5,0.3,3.7,-5
O=C1OC2(c3ccccc3)C3CCCC2C13,-0.5,1.6,14,-2,6,-0.1,-1.3,-9
COc1cc(-c2nc3ccccc3s2)ccc1O,-1.4,0.3,-16,2,2,-6.1,-163,-7
O=c1c2ccccc2nnn1CSc1ccc2ccccc2n1,5.3,-4.2,-5,-2,-2,-0.2,1.8,-1
C=CCC(COCc1ccccc1)NS(=O)(=O)c1ccccc1Br (configuration not stated),-0.8,-1.0,-19,-7,4,-0.3,1.7,1

The order is random; any-hit rate near 4.3%.
